Compound activity from PubChem BioAssay.
AID504770: growth inhibition of E. coli YBA685, primary screen, V. cholerae RctB inhibitors; E. coli YBA685 rctB-dependent plasmid, OD600 growth, 3 h; stronger effect = lower value; z-score (no concentration beside the values); 0.27% of 130,000 active;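 active means z-score under -2 on both plates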;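 further: wells of about 30 µL received 100 nL stock; score is relative to mean and SD of the test wells; the first replicate is given; strong numbers were not always called active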
Ba CapD inh: Bacillus anthracis CapD inhibitors, primary screen, biochemical, fluorescence intensity; CapD gamma-glutamyltranspeptidase (Bacillus anthracis Ames Ancestor); purified CapD enzyme, fluorescence intensity read-out; stronger effect = lower value; some hits fall short of the stated cut; z-score (test concentration not listed); 0.23% of 140,000 active;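 active means z-score under -4 in either of two replicates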;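 further: stock transfer was 100 nL into about 40 µL; score is relative to mean and spread of the plate; one replicate is shown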
The depositor's hits bear a star; / = not tested or not shown; & = joins results of further samples. Only part of the results is shown; rates above refer to the full screens.

SMILES	AID504770	Ba CapD inh
N#CC(C#N)Cc1ccccc1F	1.1	0.36
O=C(COc1ccc(OCc2ccccc2)cc1)NC1CCOC1=O (centres undefined)	-0.1	/
COc1ccc(C(CC(=O)NCc2cccnc2)N2Cc3ccccc3C2=O)cc1 (centres undefined)	-2.2	-0.05
CNc1ccc2cccc(Oc3ccc4cccc(O)c4n3)c2n1	-0.25	-0.35
CCCCN1C(=O)c2ccc(C(=O)OCC(=O)N3CCN(c4ccccc4)CC3)cc2C1=O	-0.65	/
Cc1nc(C(F)(F)F)nc(Sc2cccc(C(F)(F)F)c2)c1C	1.2	10
CC(C)(C)C1(O)CC(C(F)(F)F)=NN1C(=O)Cc1ccc([N+](=O)[O-])cc1 (centres undefined)	/	1.7
Nc1ccc2[nH]c3ccccc3c2c1	-0.75	/
COc1cc(C(=O)NN)ccc1-c1ccc(C(=O)NN)cc1	-0.1	/
Cc1ccc(/C(O)=C2\C(=O)C(=O)N(c3nncs3)C2c2ccc(C(C)(C)C)cc2)cc1 (centres undefined)	/	-0.015
Cc1ccc2occ(CC(=O)Nc3ccc(S(=O)(=O)N4CC(C)OC(C)C4)cc3)c2c1 (centres undefined)	-0.05	-0.03
CCOc1ccc(N=C2SC(C(=O)Nc3ccccc3OC)CC(=O)N2Cc2ccc(OC)cc2)cc1 (centres undefined)	/	0.62
O=C(NCc1ccccc1)c1ccc2c(=O)n(CCc3c[nH]c4ccccc34)c(=S)[nH]c2c1	/	-0.41
Cc1ccc2[nH]c3c(c2c1)CCCC3C(N)=O (centres undefined)	0.5	0.62
COC(=O)c1ccc(NC(=O)CC(CC(=O)O)c2ccccc2)cc1 (centres undefined)	-0.25	0.12
O=C(CCc1nc2ccccc2s1)OCC(=O)c1ccco1	0.4	/
Cc1ccc(CN2C(=O)CN=C(c3ccccc3)c3ccccc32)cc1	1.8	0.055
Cn1nc(C(=O)NC2CCN(Cc3ccccc3)CC2)c2c1-c1ccccc1S(=O)(=O)C2	0.05	-1.1
CCCCN(C)c1ncnc2c1sc1nc3c(cc12)COC(C)(C)C3	-0.45	-0.76
COc1ccccc1NC(=O)CSc1nc2ccccc2cc1C#N	3.8	/
CN(C)C(=Nc1ccccc1)P(=O)(c1ccccc1)N(C)C (centres undefined)	1.2	/
Cc1coc2cc3oc(=O)cc(C)c3cc12	-1.4	4.2
COc1ccccc1-n1c2nc(=O)[nH]c(=O)c-2cc2ccccc21	/	0.24
Cc1ccccc1OCCC(=O)Nc1ccc(F)c(Cl)c1	3.3	-1.5
Cc1c(C(=O)O)[nH]c2c1C(=O)CC(c1ccc(Cl)cc1)C2 (centres undefined)	-0.25	0.1
Cc1ccc(C)n1-c1sccc1C(=O)Oc1ccc2c(c1)OCO2	1.6	/
Cc1cccc(N(CC(N)=O)C2SC(=O)NC2=O)c1 (centres undefined)	0.9	-0.07
Nc1nc(N)c2c(Oc3ccc(F)cc3)cccc2n1	/	87
O=C(NCCc1cccs1)c1ccc(C(F)(F)F)cc1	/	0.21
O=C(NCCc1ccncc1)Nc1c[nH]c2ccccc2c1=O	0.8	/
CCOC(=O)c1cnc(SCC(=O)N2CCc3ccccc32)nc1N	-0.1	-0.06
Fc1ccccc1Nc1nc2nonc2nc1Nc1ccccc1	/	-1.6
CCOc1ccc(-c2n[nH]c(=S)c3ccccc23)cc1	1.5	-0.42
Cc1ccccc1Nc1nc(N)nc(COC(=O)C23CC4CC(CC(O)(C4)C2)C3)n1	-0.5	/
COc1ccc(OC)c(C2NC(=S)NC(C)=C2C(=O)Nc2ccc(C)cc2C)c1 (centres undefined)	/	-0.27
N#CCC(=O)Nc1cc(Cl)cc(Cl)c1	-0.5	-0.14
CC1CCCCC1NC(=O)COc1ccc(C#N)cc1 (centres undefined)	-0.3	-0.29
N#Cc1cc2c(=O)n3ccccc3nc2n(CCN2CCOCC2)c1=O	-1.2	0.28
CCOC(=O)CCNC(=O)NCc1nc2ccccc2[nH]1	/	0.15
O=C(Cn1c(C(F)(F)F)nc2ccccc21)N1CCN(c2ccccc2)CC1	/	-0.74

4 of these compounds, reformatted.
Cc1ccccc1Nc1nc(N)nc(COC(=O)C23CC4CC(CC(O)(C4)C2)C3)n1
  AID504770 = -0.5 | Ba CapD inh = /

Cc1cccc(N(CC(N)=O)C2SC(=O)NC2=O)c1 (centres undefined)
  AID504770 = 0.9 | Ba CapD inh = -0.07

CCOC(=O)CCNC(=O)NCc1nc2ccccc2[nH]1
  AID504770 = / | Ba CapD inh = 0.15

CN(C)C(=Nc1ccccc1)P(=O)(c1ccccc1)N(C)C (centres undefined)
  AID504770 = 1.2 | Ba CapD inh = /

Other records.
SMILES	AID504770	Ba CapD inh
COc1cc2c(cc1OC)C(Nc1ccc(Br)cc1)=NC1(CCCC1)C2	/	-0.53
O=c1[nH]cc(N2CCCCCC2)c(=O)[nH]1	-0.4	-0.09
CC(=O)Nc1ccc(NC(=O)CS(=O)(=O)Cc2ccccc2)cc1	-1.1	-0.23
COC1=CC23CCN(C)C(Cc4ccc(OC)c(O)c42)C3=CC1=O (centres undefined)	-0.25	/
COc1cc(NC(=O)CSC2=C(C#N)C(c3ccc(C)o3)C3=C(CCCC3=O)N2)c(OC)cc1Cl (centres undefined)	/	-0.42
c1ccc(CNCc2cn3c(-c4ccccc4)nnc3s2)cc1	-0.15	-0.26
O=Cc1c(O)n(-c2ccc(Cl)cc2)c(=O)[nH]c1=O	-0.9	-2.5
CN1CCC(N(C)C(=O)NC2CC(=O)N(c3cccc(F)c3)C2)CC1 (centres undefined)	2.4	/
CC(C)(C)S(=O)(=O)c1ccc(N)nc1	-0.1	-0.025
O=C(CSC1CCCC1)NCC1CCCCC1	-0.15	0.84
COc1ccc(C(=O)N2CCN(C)CC2)cc1OC	0.2	0.19
Cc1cccc(Cl)c1S(=O)(=O)N(C)CCc1c[nH]c2ccccc12	/	-1.1
O=C(/C=C/c1ccco1)Nc1ccc(S(=O)(=O)N2CCc3ccccc32)cc1	1.4	/
CCOc1ccccc1NC(=S)NC1CC2CCC1C2 (centres undefined)	/	-0.32
CC(=O)N1CCN(CC(=O)Nc2ccc(C#N)c(Cl)c2)CC1	-1.8	/
O=C(NCCN1CCOCC1)c1cc2nc(-c3ccc4c(c3)OCO4)cc(C(F)(F)F)n2n1	/	0.4
O=C(Nc1nn[nH]n1)c1cc(F)c(F)cc1Cl	-0.1	0.37
CN(CC(=O)NCc1ccccc1)c1nnc(N2CCCC2=O)s1	1.6	-0.62
CCNC(=S)Nc1ccc2cn[nH]c2c1	0.9	/
COC(=O)c1cc(NC(=O)c2cccc(Cl)c2)c(=O)oc1/C=C/N(C)C	/	-0.38
Clc1ccc(-c2nc(N3CCOCC3)nc3ccccc23)cc1	0.35	/
O=C(NNC(=O)c1ccc(Cn2cnc(Cl)c2Cl)o1)OCc1ccccc1OC(F)(F)F	/	0.92
O=C(Nc1nc2ccccc2s1)NC1CCCCC1	0.45	/
c1ccc(COc2ccc(C3SCCS3)cc2)cc1	-0.65	11
CN(CCC#N)c1ncnc2c1oc1ccccc12	-0.15	/
Clc1ccc(C2=NC(c3ccc(Cl)c(Cl)c3)N=C(c3ccc(Cl)cc3)S2)cc1	/	17
c1ccc(Nc2c(-c3ccco3)nc3ccccn23)cc1	-0.4	0.075
CCC(=O)NCCc1nc2ccccc2n1C(C)C	0.4	-0.53
CN(c1ncc(C(F)(F)F)cc1Cl)N1C(=O)c2cccc(N)c2C1=O	/	-0.22
Cc1cc(C(=O)O)c(S(C)(=O)=O)s1	0.25	-0.03
CCOCCOC(=O)C1=C(C)NC2=C(C(=O)CC(c3ccc(OC)cc3)C2)C1c1ccc(OCC)cc1 (centres undefined)	/	39
COC(=O)c1ccccc1NC(=O)Cn1c(=O)c2ccccc2n2nncc12	0.6	0.94
Cc1cc(=O)[nH]c(C23CC4CC(CC(C4)C2)C3)n1	/	0.02
S=c1[nH]cnc2scc(-c3ccc(Cl)cc3)c12	1.4	0.68
CCOC(=O)c1cn(CC)c2c(ccc3ccccc32)c1=O	0.45	/
CCOC(=O)C(Cc1ccc(F)cc1)(NC(C)=O)C(=O)OCC	/	0.69
Cn1c(=O)c2c(nc(Br)n2CC(=O)c2ccccc2)n(C)c1=O	-1.1	0.14
COC(=O)c1cc2occc2n1Cc1ccc(C)cc1	0.3	-0.24
CCOC(=O)c1cnc2c(c(C)nn2C)c1Sc1ccc(C(F)(F)F)cn1	/	0.21
CC1(C)Cc2nc(N3CCCC3)c(C#N)cc2CO1	0.25	45

Exported with two lines to a compound: entries from further up.
Order of results: AID504770 | Ba CapD inh
- Cn1c(=O)c2c(nc(Br)n2CC(=O)c2ccccc2)n(C)c1=O
  -1.1 | 0.14
- COC(=O)c1cc2occc2n1Cc1ccc(C)cc1
  0.3 | -0.24
- CCOC(=O)c1cnc2c(c(C)nn2C)c1Sc1ccc(C(F)(F)F)cn1
  / | 0.21

(continued)
SMILES	AID504770	Ba CapD inh
O=C(Nc1cccc(Cl)c1)c1cc(-c2cccc(Cl)c2)on1	0.3	0.56
C=CCNCc1ccccc1F	0.1	/
O=C(O)CCC(=O)Nc1ccc(Oc2c(Cl)cccc2Cl)nc1	-1.9	1.4
O=C(CSC1=NC2(CCCC2)N=C1c1ccccc1)Nc1ccccc1	0	-0.18
Cc1ccc(C)c(S(=O)(=O)N(CC(N)=O)C(C)c2ccccc2)c1 (centres undefined)	-0.65	/
Cn1c(SCC(=O)O)nnc1-c1ccc2ncccc2c1	/	-0.14
CCC(=O)N(c1nnc(SCc2cc(=O)n3c(C)csc3n2)s1)C1CC1	-0.85	/
COC(=O)c1ccc(NC(=O)NC(=O)C(F)(F)F)cc1	-0.2	-1
Cc1cc(Br)c(O)c(Br)c1	-0.25	/
S=c1[nH]c(-c2ccccc2)cs1	-0.6	/
CCN(CC)S(=O)(=O)c1ccc(/C=C/C(=O)N2CC(C)OC(C)C2)cc1 (centres undefined)	0.2	/
CN(Cc1nc2cc(-c3ccc(Cl)cc3)sc2c(=O)[nH]1)Cc1ccco1	0.1	/
CCn1c(=O)n(CC)c2cc(S(=O)(=O)Nc3ccccc3C)c(C)cc21	0.25	0.12
CC1CC(=O)Nc2ccccc2N1C(=O)CCC(=O)O (centres undefined)	0.6	0.27
Nc1c(C(=O)N2CCCC2)sc2nc(-c3ccccc3)ccc12	1.1	/
COc1cccc(C(=O)N(C)C2(c3ccccc3Cl)CCCCC2=O)c1OC (centres undefined)	-0.2	-0.1
O=C1c2ccccc2C(=O)C12OC(c1ccc(Br)cc1)C1(C(=O)c3ccccc3C1=O)C2c1ccc(F)cc1 (centres undefined)	/	0.23
CCc1ccc(C2=Nn3c(nnc3-c3cccc(S(=O)(=O)N(CC)CC)c3)SC2)cc1	0.65	/
CCOC(=O)C1=C(C)N=c2s/c(=C/c3ccc(N4CCN(C)CC4)o3)c(=O)n2C1c1ccc(OC)c(OC)c1 (centres undefined)	/	-0.02
O=C(O)c1ccc(CN2C(=O)CSC2=S)cc1	1.4&-0.9	0.13&-1.1
COC(=O)c1ccc(O)c(Sc2cc(C(=O)OC)ccc2O)c1	-0.85	-0.33
OCc1cc(Cl)c2c(c1)OCO2	-1.3	/
COc1ccc(CC(=O)Nc2c3c(nn2-c2ccc(C)cc2)CSC3)cc1	-2.5	-1.3
CCc1ccc(/C=c2\s/c(=C(/C#N)C(=O)C(C)(C)C)n(Cc3ccco3)c2=O)cc1	1.4	/
Cc1nc2cc(Cl)ccc2c(=O)n1-c1ccc(Cl)cc1	/	-0.4
CCOC(=O)c1c(-c2ccc(OC)c(OC)c2)csc1NC(=O)CSc1nnc2cc(C)c3ccccc3n12	/	0.53
COc1cccc2cc(S(=O)(=O)c3ccc(Cl)cc3)c(=O)oc12	-1	0.84
CC12OC(=N)C(C#N)(C1c1ccccc1)C(C#N)(C#N)C(c1ccccc1)O2 (centres undefined)	-0.3	4.5
c1coc(CNc2ncnc3c2oc2ccccc23)c1	/	1.3
O=S(=O)(NCc1ccc2c(c1)OCO2)c1ccccc1F	/	-0.32
C[C@@H]1O[C@@H](O[C@H]2CC[C@]3(C=O)C4CC[C@]5(C)[C@@H](C6=CC(=O)OC6)CC[C@]5(O)C4CC[C@]3(O)C2)[C@H](O)[C@H](O)[C@H]1O (some centres undefined)	1.2	/
O=C(CSc1nnc(Cc2csc(Nc3cccc(Cl)c3)n2)o1)c1ccc2c(c1)OCCO2	2	/
CCOC(=O)C(C)(C)Sc1nc(-c2ccc(F)cc2)nc2c1c(=O)n(C)c(=O)n2C	-0.8	0.1
Cc1onc(-c2ccccc2)c1CNC(=O)Nc1cccc(Cl)c1	1.8	-0.08
CC(=O)N1CCc2cc(S(=O)(=O)CCC(=O)Nc3ccc(C)cn3)ccc21	-0.15	1.1
Clc1ccc(-c2noc3ncnc(NCc4ccccc4)c23)cc1	0.55	0.62
Cc1cc(C)c2c(=O)[nH]sc2n1	-1	-1.4
COc1c(C(C)(C)C)cc(N=Cc2cc(Br)ccc2O)c(C)c1N=Cc1cc(Br)ccc1O	/	0.41
CNC(=O)c1cccc(NS(=O)(=O)c2ccc(C)cc2)c1	1.1	-0.76
CCOC(=O)c1nnn(-c2nn3nnnc3c3ccccc23)c1C	0.7	/
CCOc1ccc(Nc2nc3c(C)cccc3cc2C#N)cc1	2.2	-1.1
COc1ccc(CSC(N)=Nc2ccccc2Cl)cc1	-0.15	0.78
CCOC(=O)c1cnc2c(ccc3ccccc32)c1NCc1ccco1	-0.25	-0.35
O=C(Cc1ccccc1)Nc1nonc1NC(=O)c1ccccc1	1.8	-0.56
NCCN1CCCCC1	0.7	/
Cc1ccccc1-c1nc2ccccc2c(=O)n1C	0.05	/
COC(=O)CN1CCN(S(=O)(=O)c2ccc(Br)cc2)CC1	0.6	-0.46
